Assay outcomes (PubChem BioAssay)
CDC25B CDK2 inh – human CDC25B-CDK2/CyclinA binding inhibition; P30305+P24941; 94,000 compounds, 0.72% hits; HTRF CDC25B-CDK2/CyclinA binding, anti-His/anti-Flag; stronger effect = higher value; z-score (no concentration beside the values);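 note: score is relative to mean and SD of negative controls; strong numbers were not always called active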
TAR Tat displ – HIV-1 TAR-Tat binding disruption | HIV-1 TAR RNA, Tat peptide displacement FRET; stronger effect = higher value | z-score (test concentration not listed) | 100,000 compounds, 0.6% hits | AID 1259389;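 note: score is relative to mean and SD of negative controls; some compounds called inactive have numbers as strong as hits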
* = called active by the depositor; . = not tested or not shown; & = joins results of further samples.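 Rule for the calls: active = z-score from 3 up in half or more of its runs; inactive = the rest.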

structure | CDC25B CDK2 inh | TAR Tat displ
Cc1cc(Cl)ccc1OCCSc1nnc(-c2cccs2)o1 | -2.02 | 1.53
CN(CCCNC(=O)c1noc2c1CSc1ccccc1-2)Cc1ccccc1 | -0.86 | 1.62
COc1ccc(C2CC(=O)C3=C(C2)NC(C)=C(C#N)C3c2ccc(OC)c(OC)c2)cc1 (stereo not drawn) | -0.52 | -0.45
COc1cc(NC(=O)N2CCN(c3cc(N4CCCC4)nc(C)n3)CC2)cc(OC)c1 | 0.85 | 1.17
O=C1Nc2cc(C(=O)N3CCOCC3)ccc2N2CCCCC12 (stereo not drawn) | . | 1.67
COc1ccc(OC)c(S(=O)(=O)Nc2ccccn2)c1 | -0.18 | .
O=C(CCS(=O)(=O)c1ccc2c(c1)CCN2C(=O)C1CC1)NCc1ccc2c(c1)OCO2 | . | 2.08
CC(C)(C)c1ccc(NC(=O)N(CCC#N)CCc2ccccn2)cc1 | 0.95 | .
Cc1nc(CNC(=O)[C@H]2CSCN2S(=O)(=O)c2ccc(F)c(Cl)c2)cs1 | . | 0.74
CCOCCCN[C@H]1CS(=O)(=O)C[C@@H]1S(=O)(=O)c1ccc(C)cc1 | -1.06 | 0.27
Cc1c(-c2csc(-c3ccno3)n2)sc2ccccc12 | -1.02 | .
Cc1cc(C)c2c(n1)SCCN2C(=O)CCC(=O)NCC1CCCO1 (stereo not drawn) | . | -1.04
CCC12CN3CC(C)(CN(C1)C3c1ccc(O)cc1)C2=O (stereo not drawn) | -1.31 | -0.22
O=[N+]([O-])c1cc(/C=N/N=C/c2csc([N+](=O)[O-])c2)cs1 | -0.94 | .
O=C(CC1Sc2ccccc2NC1=O)Nc1ccc(O)cc1 (stereo not drawn) | -1.52 | -0.25
CCc1c(C)nc2cc(C)[nH]n2c1=O | -0.76 | .
CCC1CCCCN1S(=O)(=O)c1cc(-c2csc(C)n2)ccc1C (stereo not drawn) | . | 3.39
Cn1c(=O)c2c(-c3ccccc3)n3c(c2n(C)c1=O)C(c1cccs1)Nc1ccccc1-3 (stereo not drawn) | -1.53 | 1.9
COc1ccc(Br)cc1C1OCCn2c(-c3ccccc3)c3c(=O)n(C)c(=O)n(C)c3c21 (stereo not drawn) | -1.97 | -0.78
Cc1ccc(Cl)cc1NC(=O)NC(C)c1c(-n2cccc2)sc(C)c1C (stereo not drawn) | -0.16 | 1.25
COC(=O)c1sc(=S)n(-c2ccccc2)c1C | 5 | 1.68
O=C(NCCCN1CCOCC1)C1CCCN(c2ncnc3c2nc2n3CCCCC2)C1 (stereo not drawn) | . | 0.55
COc1ccc(OC)c(C2C(C#N)=C3N=C(N)c4ccccc4N3C3=C2C(=O)CC(C)(C)C3)c1 (stereo not drawn) | -0.35 | -0.72
CCOC(=O)C(C(=O)Nc1ccccc1)[N+](=O)[O-] (stereo not drawn) | -1.07 | .
O=C1c2cccnc2C(=O)N1Cc1ccc(F)cc1S(=O)(=O)N1CCC(c2ccccc2)C1 (stereo not drawn) | . | 3.13
Cc1ccc(C)c(NC(=O)c2oc3ccc4c(c3c2C)C(=O)CC(C)(C)O4)c1 | . | 2.13
O=C(NCCc1ccccc1Cl)NC1COc2ccccc2C1 (stereo not drawn) | . | 0.92
O=C(Cc1cccs1)Nc1ccc2[nH]c(=O)sc2c1 | . | 3.77
CCOCCOC(=O)C1=C(C)NC2=C(C(=O)CC(c3cccs3)C2)C1c1ccc(C)s1 (stereo not drawn) | -0.92 | -0.08
Cc1n[nH]c(=S)n1-c1ccc(OCc2ccccc2)cc1 | -1.97 | .

A draw from above in order of length of the SMILES, lowest first:
structure | CDC25B CDK2 inh | TAR Tat displ
O=C(NCCc1ccccc1Cl)NC1COc2ccccc2C1 (stereo not drawn) | . | 0.92
O=C(NCCCN1CCOCC1)C1CCCN(c2ncnc3c2nc2n3CCCCC2)C1 (stereo not drawn) | . | 0.55
Cc1ccc(C)c(NC(=O)c2oc3ccc4c(c3c2C)C(=O)CC(C)(C)O4)c1 | . | 2.13
O=C1c2cccnc2C(=O)N1Cc1ccc(F)cc1S(=O)(=O)N1CCC(c2ccccc2)C1 (stereo not drawn) | . | 3.13
Cn1c(=O)c2c(-c3ccccc3)n3c(c2n(C)c1=O)C(c1cccs1)Nc1ccccc1-3 (stereo not drawn) | -1.53 | 1.9

The listing continues.
structure | CDC25B CDK2 inh | TAR Tat displ
CC(C)NC(=O)N1CCC2(CC1)Nc1ccccc1-n1cccc12 | . | 0.98
CC(C)N(CCS(=O)(=O)N1CCNCC1)S(=O)(=O)c1ccc(Cl)cc1 | . | -0.87
Brc1ccc2[nH]ccc2c1 | 0.32 | .
COc1ccccc1/C=C/C=N/NC(=O)c1cc(C23CC4CC(CC(C4)C2)C3)[nH]n1 | -2.93 | .
CC(C)CNC(=O)CCC(=O)N1c2ccccc2NC2=C(C(=O)CCC2)C1c1cccs1 (stereo not drawn) | . | 1.52
CCC(SC1=Nc2ccccc2C2=NC(c3ccccc3)C(=O)N12)C(=O)NCc1ccco1 (stereo not drawn) | -1.1 | .
O=C(Cn1ncn2nc3c(c2c1=O)CCCC3)Nc1ccccc1Cl | . | 1.83
C=CCC(O)(c1ccc(Br)cc1)C(CN1CCOCC1)c1ccc(Cl)cc1 (stereo not drawn) | 0.72 | -0.26
CCCc1cc(=O)n2nc(N3CCC(C(=O)NC4CCCC4)CC3)sc2n1 | -0.21 | 0.48
Cn1c(=O)n(C)c2cc(S(=O)(=O)Nc3ccccc3O)ccc21 | -1.71 | -0.21
O=C(O)C1CCCN1c1nnc(N2CCCC2=O)s1 (stereo not drawn) | -1.34 | 2.79
COCCNC(=O)CCCn1nc(C)n2c(cc3oc(C)cc32)c1=O | -0.19 | 0.51
Cn1c(=O)c2c(ncn2CC(=O)Nc2nnc(C3CCCCC3)s2)n(C)c1=O | -0.51 | 0.03
O=C(Nc1ccc(Br)cc1)N1CCN2CCCC2C1 (stereo not drawn) | -1.48 | 0.33
O=S1(=O)C[C@H](N2CCN(Cc3ccc4c(c3)OCO4)CC2)[C@@H](S(=O)(=O)c2ccc(F)cc2)C1 | -1.68 | 0.95

Part of the list above, with each value named.
CCC12CN3CC(C)(CN(C1)C3c1ccc(O)cc1)C2=O (stereo not drawn)
  CDC25B CDK2 inh: -1.31	TAR Tat displ: -0.22
O=[N+]([O-])c1cc(/C=N/N=C/c2csc([N+](=O)[O-])c2)cs1
  CDC25B CDK2 inh: -0.94	TAR Tat displ: .
COCCNC(=O)CCCn1nc(C)n2c(cc3oc(C)cc32)c1=O
  CDC25B CDK2 inh: -0.19	TAR Tat displ: 0.51

(cont.)
structure | CDC25B CDK2 inh | TAR Tat displ
CCCCOC(=O)C1=C(C)NC2=C(C(=O)CC(C)(C)C2)C1c1cc2c(cc1Br)OCO2 (stereo not drawn) | -0.41 | -0.59
COC(=O)c1cnc(N2CCN(c3ccccc3)CC2)c2ccccc12 | . | 1.11
Cc1cc(CNC(=O)c2cnc3ccccc3n2)c(C(F)(F)F)o1 | -2.11 | .
CCOC(=O)C1CCN(S(=O)(=O)c2ccc3c(c2)CCO3)CC1 | -0.54 | .
CC1CCc2c(C(=O)NCc3ccco3)csc2C1 (stereo not drawn) | -1.44 | 0.18
CCc1cccc(Nc2nc(-c3ccccc3)no2)c1 | . | 2.05
CCOC(=O)c1onc(-c2ccc(F)cc2)c1N | -0.6 | 0.31
CCCCCn1c(SCC(=O)C(C)(C)C)nc2cc(C(=O)N3CCCC3)ccc2c1=O | 0.31 | -1.18
Cc1ccc(C2CCCN2C(=O)c2cc(-c3cccs3)on2)cc1 (stereo not drawn) | -2.39 | 0.24
Fc1ccc(CSc2ncnc3ccccc23)cc1 | -1.43 | .
CN(C)CCCO[C@H]1[C@@H](C(O)CO)OC2OC(C)(C)O[C@@H]21 (stereo partly drawn) | . | 0.97
CNC(=S)NNC(=O)CSc1cccs1 | -2.2 | .
O=C(CCSc1ccccc1)Nc1nc(-c2cccs2)cs1 | . | 0.49
O=C(Nc1ncc(Cc2cccc3ccccc23)s1)c1ccccc1Br | -13 | .
CC(CNc1nc2ccccc2c2nc(-c3cccnc3)nn12)c1ccccc1 (stereo not drawn) | 1.83 | 0.73
O=C(C(=O)N1CCN(c2ccc(F)cc2)CC1)c1c[nH]c2ccccc12 | -1.67 | -0.01
CC(C)COC(=O)n1c(=O)oc2ccc(S(=O)(=O)N3CCCCC3)cc21 | -2.63 | -1.28
O=c1[nH]c2ccccc2c(=O)n1CCSc1nc2ccccc2o1 | -1.66 | .
O=C(O)CSc1nc2ccccc2n1Cc1ccccc1 | 1 | 0.54
O=C(CCCn1sc2ccccc2c1=O)NCCC1=CCCCC1 | -1.79 | 1.42
NC(=O)c1c(NC(=O)CSc2nc(-c3cccs3)cc(C(F)(F)F)n2)sc2c1CCC2 | -0.51 | .
N#C/C(=C\c1cccnc1)c1cccs1 | -0.52 | .
Cc1noc2ncnc(N3CCCC(C(=O)N4CCC(N5CCCCC5)CC4)C3)c12 (stereo not drawn) | . | 0.8
Cc1ccc(C(=O)N2N=C3CCCCC3C2(O)C(F)(F)F)o1 (stereo not drawn) | 0.03 | .
CNS(=O)(=O)c1cn(CC(=O)NC2CCCC2)cc1S(=O)(=O)NC | . | -0.83
O=C(C1CCC(Cn2c(=O)[nH]c3ccsc3c2=O)CC1)N1CC=C(c2ccccc2)CC1 (stereo not drawn) | -0.5 | 0.33
CCOC(=O)C1CCCN(S(=O)(=O)c2cc(C(=O)OC)n(C)c2)C1 (stereo not drawn) | -1.4 | 2.04
CCCC(O)(CCN(C)C)c1ccc(OC)cc1 (stereo not drawn) | . | 2.7
O=C(c1cnc2c(c1)COc1ccc(Cl)cc1-2)c1ccccc1O | -2.21 | -1
CC1=C(C(=O)OC2CCCCC2)C(c2ccc(O)cc2)C2=C(CCCC2=O)N1 (stereo not drawn) | -1.57 | -0.99
CN1CCN(c2ncnc3c2c(-c2ccccc2)cn3-c2ccccc2Cl)CC1 | -1.33 | 0.49
CC(Oc1ccccc1)c1nc(-c2cccnc2)no1 (stereo not drawn) | -0.8 | 1.65
Cc1sc2ncnc(N3CCOCC3)c2c1C | 0.81 | .
CCOc1ccc(CCNc2nc3ccccc3c3nc(-c4cccnc4)nn23)cc1 | -1.02 | 1.13
FC(F)(F)c1ccncc1-c1nnc(-c2ccccc2)o1 | -0.8 | .
Cc1nc2ccc(Cl)cn2c(=O)c1NC(=O)CCCc1ccccc1 | . | 0.83
CC(=O)N1CCn2c1nc1ccccc12 | -1.49 | .
CCc1ccc(S(=O)(=O)Nc2cccc(-c3ccc(N4CCOCC4)nn3)c2)s1 | . | 1.42
Cc1nc2nc(-c3ccccc3)[nH]n2c(=O)c1Cc1ccccc1 | -4.99 | 0.36
Cc1cc(N2CCN(C)CC2)nc2ccc(NC(=O)NCC3CCCO3)cc12 (stereo not drawn) | . | 0.39
CCCS(=O)(=O)NCCc1cc2ccc(C)c(C)c2[nH]c1=O | -1.42 | .
OC1CCCc2c1[nH]c1ccc(OCc3ccccc3)cc21 (stereo not drawn) | -4.69 | 1.51
Cc1nn2c(=O)cc(COc3ccc(-c4nc5sc6c(c5c(=O)[nH]4)CCCC6)cc3)nc2s1 | -1.23 | 0.88
CC(C)OC(=O)CCC/C=C\C[C@@H]1[C@@H](CC[C@@H](O)CCc2ccccc2)[C@H](O)C[C@@H]1O | . | 1.21
N#Cc1c(-c2cccs2)cc(-c2ccc(F)cc2)[nH]c1=O | -0.13 | .
Cc1cccc(NS(=O)(=O)c2cc(-c3onc(C)c3C)ccc2C)c1 | . | 2.36
O=C1NC(=O)C(c2ccccc2)(c2ccccc2)N1 | -1.72&-1.7 | 0.03&0.96
Cc1ccc(S(=O)(=O)c2c[nH]c3c(F)cccc3c2=O)cc1 | -0.22 | -0.02
CCOc1ccc(C(=O)OCc2cc(=O)n3oc(C)cc3n2)cc1 | . | 1.2
Cc1[nH]c(=O)[nH]c(=O)c1S(=O)(=O)N1CCc2ccccc2C1 | . | -0.8
COc1ccc(OC)c(C2CCN(S(=O)(=O)c3ccc(-c4cc(C)no4)s3)C2)c1 (stereo not drawn) | . | 0.04
CC1CN(C2CCN(Cc3ccccc3Br)CC2)CC(C)O1 (stereo not drawn) | -0.14 | -0.83
Cc1ccc(C)n1CCN1CCN(S(=O)(=O)c2ccc(F)cc2F)CC1 | -0.41 | .
CN(C)c1ccc(/C=N/NC(N)=S)c(Cl)c1 | -0.54 | .
CC(=O)N1c2ccccc2C(=O)C1N1CCN(c2ccc(F)cc2)CC1 (stereo not drawn) | . | 1.05
Cn1c(=O)[nH]c(=O)c2c1nc(N1CCCCCC1)n2CCSc1nnnn1-c1ccccc1 | -1.06 | .
COc1cc2nc3n(c2cc1OC)C(O)C=C(c1ccccc1)S3 (stereo not drawn) | -0.49 | 0.32
Cc1cccc(C2CCCN2S(=O)(=O)c2ccc3c(c2)oc(=O)n3C)c1 (stereo not drawn) | -1.34 | 1.56
Cn1ccnc1SCC(=O)Nc1ccc(Br)cn1 | -2.32 | -1.7
CCCNC(=O)CN1C(=O)CCn2nc(C)cc21 | . | 1.92
Cc1cccn2c(=O)c3cc(C(=O)NCCCN4CCOCC4)n(C)c3nc12 | -1.1 | .
CCc1nn(CC(=O)NC2CCCCC2C)c(=O)c2cc3occc3n12 (stereo not drawn) | 0.43 | 0.38
